BasE inh: BasE siderophore enzyme inhibitors, primary screen, biochemical, Acinetobacter baumannii ATCC 17978, fluorescence polarization | AID 485350, 2010 | 84,000 tested, 0.1% active | inhibition, % (no concentration beside the values) | purified BasE, fluorescence polarization binding displacement;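 active = both replicates above 25% with normal brightness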;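 also: 0% = negative plate control signal and 100% = positive plate control signal; stock transfer was 100 nL into about 30 µL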
LANA-nucl inh: inhibitors of KSHV LANA-nucleosome binding, primary screen, biochemical, fluorescence polarization, FITC-LANA1-23, chicken nucleosomes; 51,000 tested, 0.3% active; z-score (no concentration beside the values); FITC-LANA1-23 / chicken nucleosome fluorescence polarization; hits give low values;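 active = both repeat wells score below -2 in polarization z-score versus plate sample wells, excluding overly bright wells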;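 also: 100 nL library stock added to about 30 µL; numbers are from one replicate; some results filed as inactive read as strong as hits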
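Test system: purified chicken nucleosomes with FITC-labelled LANA N-terminal peptide (1-23); Input: 240 nM purified chicken nucleosomes (480 nM peptide binding sites), final; Medium: TEN-BT buffer, pH 7.5; Timing: 10–45 min, room temperature; Technique: fluorescence polarization, 480 nm excitation, 535 nm parallel and perpendicular emission; Replication: duplicates.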
* marks the source's active call; other numbers are inactive results; x = not tested or not shown; & = joins results of further samples.

cpd	smiles	BasE inh	LANA-nucl inh
1	COc1ccc(CCn2c(N)c(Br)c(=O)[nH]c2=O)cc1OC	2.0	0.78
2	Clc1ccccc1CN1CCN(Cc2ccco2)CC1	1.3	-0.56
3	C#CCN1C(=O)S/C(=C/c2cc(C)n(-c3cccc(I)c3)c2C)C1=O	1.6	0.25
4	O=C(Oc1ccc2ccc(=O)oc2c1)c1ccccc1	-0.3	x
5	CN(C)C=Nc1ccc(Oc2cncc(Cl)c2)nc1	0.8	x
6	Cc1ccc(C(=O)N2C3=C(CCCC3)C(=O)NC23CCCCC3)cc1	-0.2	0.46
7	CC(=O)N1CCC(C(=O)c2c(C)c(C)c(C)c(C)c2C)CC1	x	-0.17
8	O=C(NCCc1ccccc1)c1cc(-c2ccccc2)on1	0.2	0.43
9	CCc1nc(NN)c2c(n1)-c1ccccc1CC21CCCCC1	-1.6	0.72
10	Cc1c(N=Cc2cccnc2)c(=O)n(-c2ccccc2)n1C	1.2	-1.3
11	Cc1ccc(S(=O)(=O)c2ccc(-n3ncc(C#N)c3N)cc2)cc1	0.5	x
12	COc1ccc(-c2nc3c(cc2C#N)c(=O)n(C)c(=O)n3CC(C)C)cc1	1.8	x
13	Cc1cccc(OCC(=O)Nc2ccc(NC(=O)c3ccco3)cc2)c1	4.2	-1.7
14	CN1/C(=C\C(=O)CN2CCOCC2)C(C)(C)c2ccccc21	2.5	x
15	COC(=O)C1CCN(C(=O)Cn2c(=O)cnc3ccccc32)CC1	-1.7	x
16	N#Cc1c(NC(=S)NC(=O)c2ccco2)sc2c1CCCC2	5.3	0.17
17	CN(C(=O)COC(=O)c1cc(S(=O)(=O)N2CCCCC2)ccc1N1CCOCC1)C1CCS(=O)(=O)C1 (stereo unspecified)	-0.8	x
18	O=C(N=C1c2ccccc2CN1c1ccc(F)c(Cl)c1)c1ccco1	-0.8	x
19	CC(C(=O)O)N1C(=O)/C(=C/c2ccc(Cl)cc2)SC1=S (stereo unspecified)	5.9	x
20	CC(=O)NCc1ccc(C(=O)COC(=O)Cc2n[nH]c(=O)c3ccccc23)o1	0.7	x
21	CCCC12CN3CC(CCC)(CN(C1)C3C(O)C(O)C(O)CO)C2=O (stereo unspecified)	2.8	x
22	Cc1nc2c(-c3ccccc3)c(C)nn2c(C)c1CC(=O)N1CCCC1	1.8	-0.073
23	O=C1CCCCCN1Sc1ccccc1	1.3	-0.75
24	O=S(=O)(c1ccccc1)N1CCCN(S(=O)(=O)c2ccccc2)CC1	1.1	x
25	CC(C)(C)NC(=O)CN1CCCNCC1	3.0	x
26	CCOC(=O)c1c(-c2ccccc2)n(S(C)(=O)=O)c2ccc(NS(C)(=O)=O)cc12	-0.9	-0.95
27	CC(C)(C)OC(=O)C(C)(C)S(=O)(=O)c1ccc(C(F)(F)F)cn1	1.9	x
28	COC(=O)c1cnc(NN2C(=O)C=C(C)C2=O)nc1C(F)(F)F	3.5	x
29	Nc1nc(-c2cccs2)c(C(=O)C(F)(F)F)s1	1.4	0.37
30	O=C(O)c1nccnc1C(=O)N1CCN(c2nc3ccc(Cl)cc3s2)CC1	-1.1	-0.47

An excerpt of these results, field by field.
15	COC(=O)C1CCN(C(=O)Cn2c(=O)cnc3ccccc32)CC1
  BasE inh: -1.7; LANA-nucl inh: x

16	N#Cc1c(NC(=S)NC(=O)c2ccco2)sc2c1CCCC2
  BasE inh: 5.3; LANA-nucl inh: 0.17

17	CN(C(=O)COC(=O)c1cc(S(=O)(=O)N2CCCCC2)ccc1N1CCOCC1)C1CCS(=O)(=O)C1 (stereo unspecified)
  BasE inh: -0.8; LANA-nucl inh: x

Following part
cpd	smiles	BasE inh	LANA-nucl inh
31	CC(=O)N1CCC(N)=N1	1.6	x
32	O=c1c2cc(Cl)ccc2nc2n1CCC2	-0.8	x
33	CC(C)Cc1ccc(C(C)C(=O)Nc2cccc(-c3cnco3)c2)cc1 (stereo unspecified)	3.0	x
34	C=CCn1c(=N)n(CC(=O)c2ccc(-c3ccccc3)cc2)c2ccccc21	-70	x
35	O=C(NCC1CCCO1)c1ccc(NS(=O)(=O)c2ccccc2)cc1 (stereo unspecified)	0.9	-1.2
36	Cn1nnc2c(NC3CC3)nc(Cc3ccc(Cl)cc3Cl)nc21	0.6	0.14
37	COC(=O)c1c(C)oc2ccc(OCc3ccc(Br)cc3)cc12	-0.7	x
38	O=C(CC1NCCNC1=O)Nc1ccccc1 (stereo unspecified)	0.8	-0.6
39	CC1CCCCN1C(=O)COc1ncnc2ccc(Br)cc12 (stereo unspecified)	1.1	x
40	COC(=O)c1ccc(Nc2nc3ccc(Cl)cc3n3cnnc23)cc1	0.1	-0.22
41	CC1=C(C(=O)N2CCCC2)C2(CCN(S(=O)(=O)c3cccs3)CC2)OC1=O	2.8	x
42	Cc1cccc(-c2nnc(-c3ccccc3)o2)c1	1.2	-0.45
43	CCCOC(=O)C1=C(C)OC23OC(N)=C(C#N)C12C(=O)c1ccccc13 (stereo unspecified)	-0.5	-0.66
44	COC(=O)c1c(C)oc(C)c1S(=O)(=O)NCc1ccco1	0.3	0.037
45	Cn1c2c(c(=O)n(C)c1=O)C(C(=O)Nc1ccc(Cl)c(Cl)c1)CC(=O)N2 (stereo unspecified)	1.4	0.68
46	CC1(CO)COC(COc2ccccc2)=N1 (stereo unspecified)	-0.4	-0.25
47	Cc1ccc2c(c1)CCCN2C(=O)NC1CCCCC1	-1.2	0.2
48	Cc1ccc(S(=O)(=O)NN2CCN(C)CC2)s1	1.0	-0.12
49	Cc1nn(CC(C)C)c2sc(C(=O)NC3CC(C)(C)NC(C)(C)C3)cc12	-8.4	x
50	Brc1ccc(-c2csc(/N=C/N3CCCC3)n2)cc1	1.2	x
51	CC(=O)NN=C1CCC(c2ccccc2)CC1 (stereo unspecified)	3.2	x
52	Cc1ccc(NCC(O)CN2c3ccccc3Sc3ccccc32)c(C)c1 (stereo unspecified)	-0.7	x
53	COc1ccc(OCCSc2nc(N)cc(N)n2)cc1	-1.8	x
54	Cc1ccc(Cl)cc1N1CCN(CCCNc2nn3nnnc3c3ccccc23)CC1	-2.2	x
55	CCn1cc(C(=O)O)c(=O)c2cc(F)c(N3CCN(C)CC3)cc21	1.4&-0.2	-0.073&-0.29&0.13&0.55&-0.18
56	Cc1sc2nc[nH]c(=O)c2c1C	2.7	x
57	O=C(Nc1ccc(C(F)(F)F)cc1)Nc1ccc(C(F)(F)F)cc1	-2.9	x
58	Cc1ccc(/C=C(\C#N)C(=O)NCCc2ccccc2)o1	-5.7	x
59	O=C(/C=C/c1ccccc1)N1CCOCC1	0.0	0.79
60	CC(C)(C)C1CCNCC1	-0.2	0.34
61	Cc1cc(OCC(=O)Nc2cccnc2)c(C)cc1Br	5.3	-0.85
62	O=C(Nc1ccccc1)Nc1ccc(C2SCCS2)cc1	1.0	x
63	O=C(CCn1[nH]c(=O)ccc1=O)Nc1nc(SCc2ccc(Cl)cc2)n[nH]1	0.1	x
64	O=C(COc1ccccc1)NCCn1ccc2ccccc21	-0.2	-0.58
65	CCN1C(=O)C2(C(C#N)=C(N)SC(N)=C2C#N)c2ccccc21	1.1	0.019
66	CN(C)S(=O)(=O)c1cccc(C(=O)OCC(=O)N2N=C3/C(=C/c4ccco4)CCCC3C2c2ccco2)c1 (stereo unspecified)	0.9	x
67	COc1ccc(C(CN)N2CCOCC2)cc1 (stereo unspecified)	-2.0	0.4
68	Cc1ccccc1Nc1nc(N)nc(COC(=O)c2ccccc2)n1	-1.2	x
69	CCn1nc(C(=O)OCC(=O)Nc2ccccc2)c2ccccc2c1=O	0.0	x
70	CCCN1CCN(CCCNC(=O)c2ccc3c(c2)sc2nc(-c4ccccc4)cn23)CC1	-6.8	-0.19
71	Cc1cc(N2CCOCC2)nc(=S)[nH]1	5.3	0.32
72	CCN1C(=O)CCC(C(=O)O)C1c1ccc(OC)cc1 (stereo unspecified)	2.0	x
73	CCOC(=O)Nc1ccc2c(CNCCCN3CCOCC3)cc(=O)oc2c1	2.1	x
74	c1ccc2c(c1)CCCc1cc(NCCN3CCOCC3)nnc1-2	-5.1	0.65
75	CCn1c(SC(C)C)nnc1-c1c[nH]c2ccccc12	1.2	-0.29
76	O=C(OCC(=O)N1CCC(c2ccccc2)=N1)c1cc(=O)[nH]c2ccccc12	1.6	x
77	COc1ccccc1/C=C/C(=O)NC1CCCC1	0.7	0.08
78	O=C(Nc1cccnc1)c1ccc(OCC2CCCO2)cc1 (stereo unspecified)	0.3	x
79	Cc1nc2ccc(NC(=O)C3CCCC3)cc2s1	0.9	x
80	Cc1cc(O)c(C=Nc2ccccc2)c(=O)o1	-0.5	x
81	Cc1ccc(/C=N/NC(=S)NC2CCCCC2)o1	0.4	x
82	N#Cc1c(-n2ccnc2)cccc1-n1ccnc1	x	0.25
83	N#CC1=C2N3CCCCCC3=NN2C(=O)NC1(c1ccccc1)C(F)(F)F (stereo unspecified)	0.6	x
84	CC1CCCN(C(=O)C(C)Nc2cc(Cl)ccc2N2CCOCC2)C1 (stereo unspecified)	-0.1	x
85	CCCC(=O)Nc1ccc(-c2cn3ccccc3n2)cc1	1.6	x
86	Cc1ccc(OCc2ccccc2C(=O)O)cc1C	-0.4	-0.7
87	COc1cc(S(=O)(=O)Nc2ccccn2)ccc1Cl	-2.3	-0.82
88	O=C(O)c1cccc2cccc(C(=O)O)c12	4.9	-0.24
89	O=c1ccc(-c2ccc(S(=O)(=O)NCC3CCN(CCc4cccs4)CC3)s2)n[nH]1	-1.2	0.76
90	CCN1CCN(C(=S)NCC2CCCO2)CC1 (stereo unspecified)	-0.5	1.1

Next records follow.
cpd	smiles	BasE inh	LANA-nucl inh
91	O=C(O)CCSc1nc2ccccc2o1	0.0	-0.3
92	CN(C)C(=S)c1ccc(N(C)C)cc1	1.7	-0.3
93	CN(C)CC(O)Cn1c2ccc(Br)cc2c2cc(Br)ccc21 (stereo unspecified)	-3.0	-0.6
94	COC(=O)C1CN(CC(=O)Nc2cccnc2Cl)CCS1 (stereo unspecified)	1.6	x
95	S=c1nc(C2CCCC2)nc2sccn12	-3.1	x
96	Cc1cc(C)c(NC(=S)N(CCN2CCCCC2)Cc2ccco2)c(C)c1	-0.7	0.67
97	COc1cc(Br)cc2c1OC1(C)CC2NC(=O)N1 (stereo unspecified)	-0.3	-1.7
98	N#CCn1c(COC(=O)C23CC4CC(CC(O)(C4)C2)C3)nc2ccccc2c1=O	4.1	x
99	Cc1ccc(NC(C)C(=O)N/N=C/c2ccco2)cc1 (stereo unspecified)	0.6	-0.022
100	O=C1/C(=C/c2ccccc2)CC/C1=C1/NCCN1C1CC(=O)N(c2cccc(F)c2)C1=O (stereo unspecified)	3.2	x
101	Cc1ccc(NC(=O)/C(C#N)=C\Nc2cccc(O)c2)cc1	-0.9	0.76
102	O=C(C1Cc2ccccc2CN1S(=O)(=O)c1cccs1)N1CCOCC1 (stereo unspecified)	1.2	-0.26
103	CS(=O)(=O)n1nc(-c2cccnc2)nc1NCc1ccccc1	0.9	-0.62
104	C=CCn1c(=S)[nH]c2sc3c(c2c1=O)CC(C)(C)OC3	0.3	x
105	Cc1ccccc1Nc1nc(N)nc(COC(=O)[C@@H](NC(=O)c2ccco2)C(C)C)n1	4.8	x
106	O=C(c1cc(NS(=O)(=O)c2ccccc2)ccn1)N1CCCCC1	-3.5	1.8
107	O=C(c1cccs1)N1CCN(S(=O)(=O)/C=C/c2ccccc2)CC1	0.1	x
108	CCc1nc(C)cn1S(=O)(=O)c1cc(OC)ccc1OC	-1.6	x
109	O=C(COC(=O)c1cccc(S(=O)(=O)N2CCCC2)c1)c1ccccc1	-4.0	x
110	CCn1cc(C(=O)Nc2ccccc2)c(=O)c2cc(Cl)ccc21	x	1.9
111	Cc1ccc(SCc2ccccc2-c2nc3ccccc3[nH]2)cc1	0.5	x
112	COc1cc(C(=O)/C=C/Nc2ccc(N(C)C)cc2)cc(OC)c1OC	-10	x
113	O=C(CCc1c[nH]c2ccccc12)N1CCN(c2ccccc2)CC1	2.6	x
114	CCn1c(=O)c2cc(C(=O)NCc3ccc(C)o3)sc2c2ccccc21	-2.5	2.3
115	CSc1ccccc1NC(=O)CN(C)C(=O)COc1ccc(-c2nnco2)cc1	0.9	x
116	COc1ccc(/C=N/O)cc1OC	-3.0	x
117	CCC(=O)OCCN1C(=O)c2ccccc2C1=O	-1.1	-1.2
118	O=C(c1cncn1-c1ccccc1)N(Cc1ccco1)Cc1cccs1	-0.1	x
119	CCn1c(SCC(=O)OCC(=O)c2ccc(Br)s2)nnc1-c1cccs1	1.2	x
120	CCCCNC(=O)C1CC(=O)N(CCC(C)C)C1 (stereo unspecified)	-0.1	-0.068

An excerpt from above in order of their number in LANA-nucl inh, high to low:
| cpd | molecule | LANA-nucl inh |
| --- | --- | --- |
| 102 | O=C(C1Cc2ccccc2CN1S(=O)(=O)c1cccs1)N1CCOCC1 (stereo unspecified) | -0.26 |
| 42 | Cc1cccc(-c2nnc(-c3ccccc3)o2)c1 | -0.45 |
| 64 | O=C(COc1ccccc1)NCCn1ccc2ccccc21 | -0.58 |

Other records
cpd	smiles	BasE inh	LANA-nucl inh
121	CCOC(=O)c1sc(NS(=O)(=O)c2ccccc2)nc1C	1.8	-0.43
122	CCn1c(CSc2nc3ccccc3s2)nnc1SCC(=O)N(c1ccccc1)C(C)C	-0.8	x
123	CNC(C)c1ccco1 (stereo unspecified)	0.1	2.5
124	COC(=O)c1ccccc1NC(=O)c1ccc(NC(=O)c2ccco2)cc1	3.2	-0.051
125	Cc1sc2nc(SC/C=C/c3ccccc3)nc(N)c2c1C	2.9	x
126	Nc1ccc(N2CCCC2)cc1	84	-0.018

Not all compounds are listed; count on the stated rates, not on these rows.
